Screening data deposited in PubChem by several laboratories.
Arbovirus inh – antivirals against arbovirus infection, primary screen, cell-based, full library, 10K replicate subset. AID 1251, 2008. arbovirus infection cell-based antiviral screen. inhibition, % at 10 µM. 200,000 compounds, 0.37% hits;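 active = inhibition from about 30%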;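 note: bluetongue infection of BSR cells; cell survival read as ATP light after 72 h; 0% = infected wells without compound and 100% = uninfected wells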
Mtb bLac sens – beta-lactam sensitization of Mtb H37Rv, H37Rv; inhibition, % at 25 µM; M. tuberculosis H37Rv growth with meropenem, percent inhibition; hits of this screen are not shown here; 330,000 compounds, 0.27% hits; AID 434955, 2010;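 active = about 74% or more and at least 40 points above the plate without the antibiotic, then above 30% in a dose series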;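 note: growth measured after seven days incubation then overnight dye step; 0% = bacteria only wells and 100% = bacteria with antibiotic; twin plates without the antibiotic show which effects depend on it; some results filed as inactive read as strong as hits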
YopH inh – YopH tyrosine phosphatase inhibitors, primary screen, biochemical, fluorescence Ex485/Em525; 140,000 compounds, 0.16% hits; inhibition, %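 (about 10 µM by stock and volumes)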; AID 898, 2007;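 active = inhibition of 50% or more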;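 note: controls were vehicle for no effect and minimum signal wells for full effect; inactives centre near -20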
Mtb H37Rv – M. tuberculosis H37Rv growth inhibitors, H37Rv strain (AID 1626) | M. tuberculosis H37Rv growth inhibition; higher % means a stronger effect | inhibition, % at 10 µM; hits with a dose series show IC50 in µM | 220,000 compounds, 0.95% hits;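 active = confirmed in a dose series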;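 note: bacteria incubated seven days before Alamar blue readout; 0% = bacteria only wells and 100% = bacteria with antibiotic wells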
RecA splice inh – Mtb RecA intein splicing inhibitors, primary screen, biochemical, fluorescence, HTS; inhibition, %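 (about 9 µM by stock and volumes)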; cell-free RecA intein splicing; Protein RecA (Mycobacterium tuberculosis (strain ATCC 25618 / H37Rv)), P9WHJ3; 290,000 compounds, 0.75% hits; in the data active = inhibition above about 30%;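 note: 0% = vehicle wells and 100% = reference inhibitor control wells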
Target sequence (P9WHJ3 whole entry, looked up, canonical isoform): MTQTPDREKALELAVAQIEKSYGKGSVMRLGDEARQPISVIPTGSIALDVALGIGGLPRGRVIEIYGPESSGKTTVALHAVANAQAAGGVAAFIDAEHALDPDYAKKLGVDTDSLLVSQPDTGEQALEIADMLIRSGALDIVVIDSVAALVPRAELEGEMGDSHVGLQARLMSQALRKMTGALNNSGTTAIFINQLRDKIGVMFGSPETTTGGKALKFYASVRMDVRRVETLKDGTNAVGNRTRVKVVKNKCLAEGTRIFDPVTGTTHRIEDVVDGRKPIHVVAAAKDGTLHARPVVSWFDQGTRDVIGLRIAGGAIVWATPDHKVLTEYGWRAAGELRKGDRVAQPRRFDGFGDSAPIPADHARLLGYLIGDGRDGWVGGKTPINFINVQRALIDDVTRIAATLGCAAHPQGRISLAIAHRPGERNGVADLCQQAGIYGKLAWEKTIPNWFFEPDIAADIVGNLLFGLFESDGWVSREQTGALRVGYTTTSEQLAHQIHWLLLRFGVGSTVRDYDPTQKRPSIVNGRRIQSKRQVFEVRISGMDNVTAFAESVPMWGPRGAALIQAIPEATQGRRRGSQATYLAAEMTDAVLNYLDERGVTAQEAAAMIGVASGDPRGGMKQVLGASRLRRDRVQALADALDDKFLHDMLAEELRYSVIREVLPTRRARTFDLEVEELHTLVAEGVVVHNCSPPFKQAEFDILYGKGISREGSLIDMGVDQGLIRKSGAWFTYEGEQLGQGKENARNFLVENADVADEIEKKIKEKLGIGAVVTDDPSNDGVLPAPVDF
Arbovirus inh repeat – further read-out of Arbovirus inh, marked with its call; inhibition, %; measured here: 10K subset replicate screen; many hits read low in the repeat;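 first of two repeat runs on a subset; 0% = infected and 100% = uninfected wells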
Starred values were filed as active, the others as inactive; x = not tested or not shown.

SMILES	Arbovirus inh	Mtb bLac sens	YopH inh	Mtb H37Rv	RecA splice inh	others
COc1ccc(C(=O)/C=C/C(=O)N(Cc2ccccc2)C(C(=O)NC2CCCCC2)c2ccncc2)c(O)c1 (configuration not stated)	-10	4	-9	3%	6.2
CCCc1nnc2n1N=C(c1ccc(OC)c(OC)c1)CS2	-2	6	-17	-12%	7.5
COc1ccc2[nH]c(=O)c(CN(Cc3cccnc3)C(=S)NCC3CCCO3)cc2c1 (configuration not stated)	-4	-1	x	-3%	0.6
C/C(=N\NC(=O)c1ccoc1C)c1cccnc1	-8	0	3	-4%	0.3
COc1cc(OC)cc(OCC(O)Cn2cnc(-c3ccccc3)c2)c1 (configuration not stated)	6	8	-20	6%	2.9
Cc1cc(OCC(=O)Nc2ccc(S(=O)(=O)N3CCN(C)CC3)cc2)ccc1Br	x	7	x	x	0.0
CN(Cc1ccccc1F)C(=O)c1ccccc1Sc1ccccc1C#N	x	0	x	x	7.3
COc1cc(/C=C2/SC(=S)N(CCC(=O)Nc3ccccc3)C2=O)cc(OC)c1OC	x	5	x	x	6.6
CCN(CC)C(=S)NC(=O)Cc1ccccc1	7	-2	x	0%	-0.3
COc1ccc(CCNc2nc(N3CCCCC3)nc(N3CCCCC3)n2)cc1OC	3	98	-14	12µM*	9.9
CCOc1ccccc1N(CC(=O)NCCc1ccccc1)C(=O)CCC(=O)Nc1ccccn1	x	-4	x	x	1.1
CCCN(C(=O)c1cc(Cl)nc2ccccc12)C1CCS(=O)(=O)C1 (configuration not stated)	x	-16	x	x	-2.9
CC(C)OP(=O)(OC(C)C)C(Nc1ccccn1)c1ccc(F)cc1 (configuration not stated)	-2	2	-24	2%	1.3
Cc1ccc(Cl)c(NC(=O)CN(C)CC(=O)Nc2ccc(F)c(F)c2F)c1Cl	1	0	x	-7%	-0.5
O=C(CN1C(=O)/C(=C/c2ccccc2F)Sc2ccccc21)NCCCN1CCOCC1	x	5	x	x	-2.7
O=C(O)c1ccc(COc2ccccc2[N+](=O)[O-])o1	-10	7	-29	-5%	-3.6
COc1ccc(C(=O)OCCOc2ccccc2C(C)=O)c(O)c1	-6	1	x	2%	x
CCOC(=O)C1(CCCc2ccccc2)CCN(C(=O)C(C)n2cncn2)CC1 (configuration not stated)	5	-1	x	0%	1.3
CC(=O)c1ccc(NC(=O)C2CC(=O)N(C(C)C)C2)cc1 (configuration not stated)	6	10	x	6%	-3.6
CCN(CC(=O)N1CCOCC1)S(=O)(=O)c1ccc(Cl)cc1	x	-2	x	x	0.5
Cc1[nH]c2ccccc2c1C(=O)CSc1cccc[n+]1[O-]	x	1	x	x	-0.8
CCOC(=O)c1nnn(-c2nonc2-n2cccc2)c1CN1CCCCC1	-2	-1	-1	5%	9.6
O=C(O)CCC(=O)N1CCOc2ccc(Cl)cc21	-1	4	-59	-2%	-2.3
CC1(C)CC(=O)C(=CN2CCN(C(=O)c3ccco3)CC2)C(=O)C1	-2	x	2	0%	-0.8	Arbovirus inh repeat=6
O=C(c1cccs1)N1CCC(c2nc3ccccc3s2)CC1	-1	20	-8	-7%	2.4

Compounds shown so far that contain a furan ring, fused or not:
SMILES	Arbovirus inh	Mtb bLac sens	YopH inh	Mtb H37Rv	RecA splice inh	others
C/C(=N\NC(=O)c1ccoc1C)c1cccnc1	-8	0	3	-4%	0.3
O=C(O)c1ccc(COc2ccccc2[N+](=O)[O-])o1	-10	7	-29	-5%	-3.6
CC1(C)CC(=O)C(=CN2CCN(C(=O)c3ccco3)CC2)C(=O)C1	-2	x	2	0%	-0.8	Arbovirus inh repeat=6

More compounds follow:
SMILES	Arbovirus inh	Mtb bLac sens	YopH inh	Mtb H37Rv	RecA splice inh	others
Clc1cccc(CNCCNCc2cccc(Cl)c2)c1	-5	-2	x	8%	3.8
CCn1c(=O)cc(SCC(=O)NCC2CCCO2)c2ccccc21 (configuration not stated)	3	-11	-6	-2%	x
Cc1ccc(C(C)C)c(OCC(=O)NS(=O)(=O)c2ccc(Cl)cc2)c1	x	-3	x	x	2.6
COc1ccc(C(CC(=O)NCCN2CCOCC2)NS(=O)(=O)c2ccc(C)cc2)cc1 (configuration not stated)	7	-2	-16	4%	0.1
CC(CNC(=O)CCc1ccccc1)NC(=O)CCc1ccccc1 (configuration not stated)	x	-3	x	x	1.5
O=C(CCCc1nc(-c2ccccc2)no1)NCc1cccnc1	20	2	-60	-5%	-1.6
Cc1cc(Cl)cc(C)c1OCC(=O)O	9	20	x	-13%	-0.8
O=C(O)CCc1ccc(-c2ccc(Cl)cc2)n1CCC(=O)O	5	4	-36	-12%	1.6
O=[N+]([O-])c1ccc(NNC(=S)Nc2ccccc2)cc1	-18	4	-16	x	-0.4
COc1ccc(-c2coc3c(CN4CCOCC4)c(O)ccc3c2=O)cc1	x	3	x	-2%	-1.0
Cc1ccc(NC(=O)c2cc(-c3ccc(C)o3)nc3ccccc23)nc1	-2	8	-16	3%	-2.7	Arbovirus inh repeat=1
Cc1cc(C)c2[nH]c(C(=O)Nc3ccc(F)cc3Br)cc2c1	x	16	x	x	-1.2
Cc1cc(C)n(CC(O)CN2C(=O)NC(C)(C)C2=O)n1 (configuration not stated)	0	-3	-33	-5%	5.9
Cc1ccc(S(=O)(=O)NC(C(=O)N2CCOCCOCCOCCOCC2)c2ccccc2)cc1 (configuration not stated)	1	-4	x	-9%	-1.2
O=C(Nn1c(-c2ccc(Br)cc2)nc2ccccc2c1=O)c1cccnc1	11	-1	x	12%	-3.9
COC(=O)Cc1c(O)ccn(Cc2ccccc2OC)c1=O	3	-6	-34	2%	-0.3
COc1cc(NC(=O)c2cc([N+](=O)[O-])ccc2N2CCOCC2)ccc1NC(=O)c1ccco1	x	-3	x	x	-0.4
Cc1ccc(CNC(=O)/C=C/c2ccc(S(=O)(=O)NCc3ccco3)cc2)cc1	2	-6	-23	4%	-0.7
CC1=C(C(=O)OC(C)C)C(c2ccco2)NC(=O)N1 (configuration not stated)	7	-5	-19	6%	6.7
Nc1nc2ccccc2n1CCOc1ccc(Cl)cc1	x	8	x	x	-2.1
O=C1CCc2cc(S(=O)(=O)NCCC(=O)NC3CCN(Cc4ccccc4)CC3)ccc2N1	0	-2	-25	-6%	x
Clc1ccc(CN2C3=NCCN3c3ccccc32)cc1Cl	-18	5	-47	3%	-2.3
CCCCCn1c(N2CCN(Cc3ccccc3)CC2)nc2c1c(=O)[nH]c(=O)n2C	-2	-2	-30	2%	1.7
CCN(CC)Cc1oc(CO)cc(=O)c1O	-5	1	x	-6%	-4.7
Cn1c(=O)c2cc(S(=O)(=O)NCCC(=O)N3CC=C(c4ccccc4)CC3)ccc2n(C)c1=O	3	-6	-59	-9%	x
More structures:
SMILES	Arbovirus inh	Mtb bLac sens	YopH inh	Mtb H37Rv	RecA splice inh	others
O=C(Cc1ccccc1)OC(COCc1ccccc1)CN1CCOCC1 (configuration not stated)	3	-3	10	4%	0.9
COc1ccc2[nH]cc(CCNC(=O)Cc3ccc(Br)cc3)c2c1	x	-4	x	x	1.6
O=C(/C=C\Nc1ccc2c(c1)OCO2)c1cccs1	-27	-8	x	91%	-1.4
CCN(c1ccc(NC(=O)COC(=O)c2cc3ccccc3oc2=O)cc1)C(C)C	-4	70	x	9%	0.3
O=C(CCc1ccccc1)NCC1(c2ccccc2)CCCC1	x	-9	x	x	3.2
CCOc1ccccc1OCC(=O)Nc1ccc(Cl)cc1C(=O)c1ccccc1	10	-3	-26	13%	19
CCN(CC(=O)Nc1ccccc1OC)C(=O)c1ccc(NS(=O)(=O)c2ccc(C(C)=O)cc2)cc1	x	-11	x	x	1.2
CCOC(=O)NNC(=O)C1CCC(C)CC1 (configuration not stated)	0	-3	x	-4%	-2.2
COc1ccc(C(=O)NCC(=O)NCC2COc3ccccc3O2)cc1 (configuration not stated)	0	-8	-11	-3%	-3.0
Cc1ccc2c(C)c(C(=O)Nc3cccnc3)oc2c1	-7	6	-13	-4%	-1.7
Cc1ccc(C)c2[nH]c(=O)c(CN(Cc3ccco3)C(=S)NCC3CCCO3)cc12 (configuration not stated)	1	0	x	-4%	-1.5
OC(CN=c1sc2ccccc2n1CC(O)COc1ccccc1)COc1ccccc1 (configuration not stated)	4	14	13	3%	2.4
O=C(COC(=O)c1ccccn1)NC1CCCCC1	3	4	4	12%	3.5
CCOP(=O)(OCC)C(O)c1ccc(N(C)C)cc1 (configuration not stated)	x	-2	x	-4%	-0.4
CC1CN(C(=O)C(C)Sc2nnnn2C)CC(C)O1 (configuration not stated)	16	-5	x	-3%	-0.7
COCC1CCCCN1C(=O)c1ccc(OC2CCN(CCc3ccccc3)CC2)cc1 (configuration not stated)	x	1	x	x	-0.2
CS(=O)(=O)c1ccccc1-c1nnc(NC(=O)Cc2ccccc2)o1	x	3	x	x	0.2
CCc1[nH]nc2c1C(c1ccsc1)C(C#N)=C(N)O2 (configuration not stated)	-4	-14	-2	-5%	77*
COc1ccc(NC(=O)CCNC(=O)c2ccccc2)cc1S(N)(=O)=O	x	-3	x	x	0.8
Cc1ccccc1N1CC(O)(c2ccccc2)[N+]2=C1SCC2 (configuration not stated)	0	-3	-23	x	1.6
CN(c1ccccc1)S(=O)(=O)c1cccc(NC(=O)Cn2cnc3ccccc3c2=O)c1	2	2	7	1%	2.2
O=C(CSc1nnc(COc2ccc(Cl)cc2)n1Cc1ccco1)c1ccccc1F	-3	4	-37	-13%	3.1
COc1cccc(-n2nnc3c(=O)n(C/C=C/c4ccccc4)cnc32)c1	-2	3	-1	5%	1.2	Arbovirus inh repeat=3
Cc1ccc(NC(=O)CN2CCN(C)CC2)cc1S(=O)(=O)N1CCOCC1	x	-14	x	x	-1.9
O=C(c1ccccc1Nc1ccc(SC(F)F)cc1)N1CCCCC1	-15	2	-10	-7%	13

The last 3 records of the part above open the next one:
SMILES	Arbovirus inh	Mtb bLac sens	YopH inh	Mtb H37Rv	RecA splice inh	others
COc1cccc(-n2nnc3c(=O)n(C/C=C/c4ccccc4)cnc32)c1	-2	3	-1	5%	1.2	Arbovirus inh repeat=3
Cc1ccc(NC(=O)CN2CCN(C)CC2)cc1S(=O)(=O)N1CCOCC1	x	-14	x	x	-1.9
O=C(c1ccccc1Nc1ccc(SC(F)F)cc1)N1CCCCC1	-15	2	-10	-7%	13
CCCCSc1nc2c(c(=O)[nH]c(=O)n2C)n1CCc1ccccc1	-1	6	x	13%	0.9	Arbovirus inh repeat=0
Cc1noc(C)c1C(=O)OCC(=O)Nc1c(F)cccc1F	23	-3	x	1%	2.1
Cn1c(C(=O)N[C@@H](C(=O)O)c2ccccc2)cc2cc(Cl)ccc21	x	-5	x	x	2.7
CS(=O)(=O)c1ccc(Cl)c(NC(=O)Nc2ccccc2)c1	x	-10	x	1%	-1.4
Cc1ccc(CNC(=O)CCS(=O)(=O)c2ccc3c(c2)CC(C)N3C(=O)C2CC2)o1 (configuration not stated)	x	5	x	x	-2.8
O=C(c1ccco1)N1N=C(C2CCCCC2)CC1(O)C(F)(F)F (configuration not stated)	-4	-6	x	-7%	2.1
CCOC(=O)C1CCN(C(=O)c2ccc(Br)o2)CC1	12	0	8	-3%	-3.0
CC(=O)c1cc(C(=O)c2ccccc2)sc1Nc1ccccc1	-2	65	-6	19%	1.6
CCOC(=O)c1cnc(Nc2ccccc2)nc1C(F)(F)F	x	-1	x	4%	0.6
O=C(CN1C(=O)S/C(=C\c2ccccn2)C1=O)Nc1ccc(F)cc1	x	-2	x	x	-1.3
Cc1ccc(-n2c(O)c(C=NC3CCCCC3N)c(=O)[nH]c2=O)cc1C (configuration not stated)	0	-5	3	6%	3.2
O=C1C(=O)N(C2CCS(=O)(=O)C2)C(c2cccc(O)c2)/C1=C(/O)c1ccc(Cl)cc1 (configuration not stated)	x	-5	x	x	0.1
CC(C)c1ccc(C(=O)N2CCCN(C(=O)c3ccc(C(C)C)cc3)CC2)cc1	2	0	-2	6%	4.8
CCc1ccc(CC)c(S(=O)(=O)Nc2ccc(C(=O)O)c(O)c2)c1	5	30	-34	1%	-0.1
COc1cccc(NC(=O)CSc2nnc(COc3ccc4c(c3)CCCC4)o2)c1	-1	81	26	10%	0.3

Gathered by group, the entries above with a CF3 group
SMILES	Arbovirus inh	Mtb bLac sens	YopH inh	Mtb H37Rv	RecA splice inh	others
O=C(c1ccco1)N1N=C(C2CCCCC2)CC1(O)C(F)(F)F (configuration not stated)	-4	-6	x	-7%	2.1
CCOC(=O)c1cnc(Nc2ccccc2)nc1C(F)(F)F	x	-1	x	4%	0.6

Not all compounds are listed, so the mix of outcomes need not match the whole.
